# Bioassay records from PubChem BioAssay.
# D2 potentiator: human D2 receptor positive allosteric modulation; 360,000 tested, 0.23% active; AID 624464; potentiation, % (no concentration beside the values); P14416; DiscoveRx D2 beta-arrestin cells, luminescence, 90 min; 100% = 57 uM dopamine signal; active = potentiation of 50% or more; inconclusive = 30% to 50%; inactive = 30% or less;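 note: compound concentration not given in the record; tested on top of an EC20 dose of dopamine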
#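 PathHunter D2 cells, attached overnight at 37 deg C, received compound in DMSO plus dopamine at EC20 (50 nM final) for 90 min at 37 deg C. Beta-arrestin recruitment was read as luminescence after 1 h with detection reagent at ambient temperature.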
# Six1-Eya2 inh: inhibitors of human Six1/Eya2 interaction | 360,000 tested, 0.56% active | activity change, % (no concentration beside the values) | AID 651725 | AlphaScreen GST-Six1/His-Eya2 binding, biochemical; hits give low values; control for the full effect not named in the record; in the data active = activity change below about -65%; inconclusive = about -30% to -65%; inactive = above about -30%; note: % is set by controls: 0 for no effect and ±100 for the full control effect; compound concentration not given in the record
# Target sequence (O00167 whole entry, looked up): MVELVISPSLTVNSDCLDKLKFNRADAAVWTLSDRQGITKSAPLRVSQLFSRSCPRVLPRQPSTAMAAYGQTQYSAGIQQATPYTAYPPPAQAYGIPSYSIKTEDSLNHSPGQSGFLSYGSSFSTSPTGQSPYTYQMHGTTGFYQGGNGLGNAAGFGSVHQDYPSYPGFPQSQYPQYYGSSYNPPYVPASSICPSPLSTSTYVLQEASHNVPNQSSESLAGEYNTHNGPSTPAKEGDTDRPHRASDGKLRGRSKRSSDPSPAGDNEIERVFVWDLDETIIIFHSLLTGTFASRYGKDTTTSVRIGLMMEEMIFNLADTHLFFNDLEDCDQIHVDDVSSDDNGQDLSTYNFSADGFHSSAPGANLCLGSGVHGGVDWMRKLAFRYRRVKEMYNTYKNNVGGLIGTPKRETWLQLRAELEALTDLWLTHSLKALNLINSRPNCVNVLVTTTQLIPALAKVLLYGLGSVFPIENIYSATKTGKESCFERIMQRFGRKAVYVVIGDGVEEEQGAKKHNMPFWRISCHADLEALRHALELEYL
# Target sequence (Q15475 whole entry, looked up): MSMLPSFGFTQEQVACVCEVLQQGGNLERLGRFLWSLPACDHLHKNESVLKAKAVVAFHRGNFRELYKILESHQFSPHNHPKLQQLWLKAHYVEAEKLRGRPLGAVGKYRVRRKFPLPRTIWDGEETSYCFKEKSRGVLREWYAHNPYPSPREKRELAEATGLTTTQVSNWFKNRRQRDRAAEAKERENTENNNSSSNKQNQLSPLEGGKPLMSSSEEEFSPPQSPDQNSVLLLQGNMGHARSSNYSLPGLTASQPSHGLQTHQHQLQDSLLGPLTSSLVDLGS
#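 Six1/Eya2 binding was read as AlphaScreen signal after compounds were pinned into GST-Six1 plus His-tagged Eya2 (5X stock 250/500 nM) in pH 8.0 Tris/NaCl/TCEP buffer, beads added, then incubated 1 h, 37 C, dark.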
# CtBP-E1A inh: blocks the CtBP interaction with E1A; AlphaScreen GST-E1A/His-CtBP binding, 1536-well; hits give low values; control for the full effect not named in the record; activity change, % (concentration not given with the values); 340,000 tested, 0.49% active; AID 651724; in the data active means activity change below about -65%; inconclusive means about -30% to -65%; inactive means above about -30%; note: % is set by controls: 0 for no effect and ±100 for the full control effect
#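 In 5 uL wells, 23 nL compound meets equimolar GST-E1A and His-CtBP (5X stock 125 nM each) for 2 h, 37 °C. Beads (5X, 50 ug/mL) then 1 h, 37 °C, dark.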
# PINK1 modulator: modulators of PINK1 expression. AID 624263. Potency, µM (top dose mostly 76.6 µM), inactives show at the top dose activation (PINK1 increase), usual class: activators. PINK1 immunofluorescence, high-content cytometry, 24 h. 410,000 tested, 0.2% active; active = well fitted activation curve with a large enough effect; inconclusive = small, poorly fitted or top-dose-only effect; inactive = flat fitted curve, though single readings scatter; cell line not stated here;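 note: potency is the fitted concentration of half-maximal effect; % of control where 0% means no effect; nearly all actives have a fitted effect of over 65% in size; a mitochondrial uncoupler was the plate control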
#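 Cells are seeded, rested 12 hours, then given compound at five concentrations or DMSO for 24 hours. After fixation, blocking and antibody staining, PINK1 amount and mitochondrial localization are scored; CCCP serves as control.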
# D2 ag: agonists of human D2 dopamine receptor (beta-arrestin); P14416; DiscoveRx PathHunter D2 beta-arrestin, luminescence, 90 min; 100% = 57 uM dopamine signal; activation, % (no concentration beside the values); 360,000 tested, 0.084% active; AID 624465; in the data active = activation above about 40%; inconclusive = about 15% to 40%; inactive = below about 15%; note: compound concentration not given in the record; the text of the record calls up to 30% inactive
#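 DiscoveRx PathHunter D2 beta-arrestin cells (2,100/well) attached overnight, then compound-stimulated 90 min at 37 C in HBSS/10 mM HEPES/0.1% Tween-20 buffer; beta-galactosidase complementation read by luminescence after 1 h at ambient temperature. Dopamine 57 uM final (EC100) as control.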
# TRPML1 agonist: agonists of human TRPML1 channel | Q9GZU1 | 410,000 tested, 0.12% active | TRPML1-expressing cells, Ca2+ dye fluorescence, FDSS; host cell line not named in the record; reference of the full effect not given here | AID 624414 | activation, % (test concentration not listed); in the data active = activation above about 50%; inconclusive = about 30% to 50%; inactive = below about 30%; note: 0% is about no effect; the text of the record puts the active cut at 80%
#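 In this qHTS format, compounds were pin-transferred onto Ca8-dye-loaded TRPML1-DL cells induced with Tet overnight, and intracellular Ca2+ fluorescence was recorded kinetically for 110 s after a 10 s baseline. A subsequent 4uM final 54-4 (EC80) addition followed by a second 110 s read served as the antagonist phase.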
# * hit, by the source's call; ? = inconclusive; . = no result given; [ ] = another dose, or the depositor's remark.
SMILES,D2 potentiator,Six1-Eya2 inh,CtBP-E1A inh,PINK1 modulator,D2 ag,TRPML1 agonist
COc1cccc(-n2c(Cc3cc(=O)[nH]c(=O)[nH]3)nnc2SCC(=O)N2CCCCC2)c1,-1,-1,2,-0.2%,-1.2,0.4
Cc1cccc(NC(=O)Cn2cnc3sc(C)c(S(=O)(=O)N4CCC(C)CC4)c3c2=O)n1,2,7,6,?,2.6,2.7
CCOc1cc(/C=N/NC(=O)C(=O)N2CCCC2)ccc1O,-1,-2,21,0.1%,6.2,2.3
O=C1CCc2cc(S(=O)(=O)NC(Cc3ccccc3)C(=O)N3CCN(c4ccccn4)CC3)ccc2N1 (stereo unspecified),-13,36,.,-0.7%,3.9,-0.1
N/C(=N/OC(=O)c1ccc(Cl)cc1)c1ncc([N+](=O)[O-])s1,1,-2,.,1.4%,-0.7,-0.8
CC(C)NC(=S)N1CCN(S(=O)(=O)c2cccc(C(F)(F)F)c2)CC1,-1,3,0,-0.4%,3.4,0.0
CN(C)S(=O)(=O)c1ccc(S(=O)(=O)N2CCCC2)cc1,-9,-2,4,-1.1%,-3.5,-0.6
C[C@@H]1CN([C@H](C)CO)C(=O)c2c(c3ccccc3n2C)-c2ccccc2CO[C@H]1CN(C)C(=O)c1cc(Cl)cc(Cl)c1,.,-3,2,1.3%,-1.8,.
Cc1cc(C)n(-c2ccc(C(=O)OCC(=O)NCc3ccc(Cl)cc3)cc2)n1,3,10,3,7.7%,-1.6,2.2
COCCNC(=O)C(c1ccc(C)o1)N(C(=O)c1snc(C(N)=O)c1N)c1cc(C)cc(C)c1 (stereo unspecified),-7,-3,5,-0.4%[38.3 µM],-0.1,0.4
CC(=O)NCCC1CCCCN1C(=O)c1cc(COc2cc(C)ccc2C)on1 (stereo unspecified),-10,5,-9,-1.9%,0.5,-0.4
O=C(NC1CCCCC1)N(Cc1ccccc1)Cc1ccco1,-13,2,-3,0.5%,-4.1,2.0
O=C(Nc1ccc(N2CCN(Cc3ccccc3F)CC2)cc1)c1ccccc1[N+](=O)[O-],-27,-1,-16,3.1%,-3.9,-0.7
Cc1nc2ccccc2n1S(=O)(=O)c1ccc(S(=O)(=O)N2CCCCCC2)cc1,-4,3,-13,0.1%,3.0,1.3
COc1ccc(CC(=O)Oc2ccccc2Cl)cc1S(=O)(=O)N1CCOCC1,-4,-11,-12,-0.8%,-2.0,-1.0
CCCCc1cn(C[C@H]2CC[C@@H]([C@@H]3CC[C@H](Cn4cc(CCCC)nn4)O3)O2)nn1,-8,6,1,-1.3%,-3.6,-0.6
Cc1ccccc1C1C(C#N)=C2N=C(N)c3ccccc3N2C2=C1C(=O)CCC2 (stereo unspecified),-10,-10,-6,3.6%,-3.8,-0.8
O=C(CCC(=O)Nc1ccc(Cl)cc1)N/N=C/c1ccc2c(c1)OCO2,-10,-2,14,?,-5.7,1.6
COc1ccccc1Nc1nc(-c2sc(N)nc2C)cs1,-17,-12,.,8.5%,0.9,-0.5
CC12CCC(C(=O)N(CSC(=S)N/N=C\c3ccccc3Cl)C1=O)C2(C)C (stereo unspecified),-13,?,?,-0.3%,2.7,1.8
CCc1ccccc1N(C)S(=O)(=O)c1ccc(-c2cc(C)no2)s1,1,0,.,0.6%,1.3,4.3
Cn1c(N)c(C(=O)COC(=O)/C=C/c2ccc(F)cc2)c(=O)n(C)c1=O,3,-20,-1,-0.1%,-1.3,0.7
Cc1nc2ccc(C(=O)N(C)CC3CCCN(CCc4ccc(Cl)cc4)C3)cc2[nH]1 (stereo unspecified),-26,-1,-6,-0.3%,-2.6,-0.5
OCCN(CCCn1c(C(F)(F)F)nc2ccccc21)c1nc(CN2CCCCC2)cs1,-18,2,4,0.8%,-0.4,-0.7
O=C1NC(=O)C(Nc2cccc3ccccc23)S1 (stereo unspecified),63*,-1,-6,1.1%,3.4,-0.4

# 5 successive compounds already listed, for reference:
SMILES,D2 potentiator,Six1-Eya2 inh,CtBP-E1A inh,PINK1 modulator,D2 ag,TRPML1 agonist
Cc1nc2ccccc2n1S(=O)(=O)c1ccc(S(=O)(=O)N2CCCCCC2)cc1,-4,3,-13,0.1%,3.0,1.3
COc1ccc(CC(=O)Oc2ccccc2Cl)cc1S(=O)(=O)N1CCOCC1,-4,-11,-12,-0.8%,-2.0,-1.0
CCCCc1cn(C[C@H]2CC[C@@H]([C@@H]3CC[C@H](Cn4cc(CCCC)nn4)O3)O2)nn1,-8,6,1,-1.3%,-3.6,-0.6
Cc1ccccc1C1C(C#N)=C2N=C(N)c3ccccc3N2C2=C1C(=O)CCC2 (stereo unspecified),-10,-10,-6,3.6%,-3.8,-0.8
O=C(CCC(=O)Nc1ccc(Cl)cc1)N/N=C/c1ccc2c(c1)OCO2,-10,-2,14,?,-5.7,1.6

# Remaining list, next part.
SMILES,D2 potentiator,Six1-Eya2 inh,CtBP-E1A inh,PINK1 modulator,D2 ag,TRPML1 agonist
CSc1ccc(Cl)c(C(=O)Nc2ccc(Cl)cn2)c1,0,5,13,4.5%,-4.0,1.6
CSc1nnc(C(C)(C)C)c(=O)n1/N=C/c1ccccc1O,-6,4,-9,2.2%,1.3,.
O=C1CN(C(=O)CSc2nnc3ccccn23)c2ccccc2N1,18,9,2,-0.4%,0.3,0.6
CN(C)/C=C1\N=C(c2cccs2)OC1=O,-18,10,-3,0.1%,1.2,-0.5
O=C(Nc1ccccc1Oc1ccccc1)c1ccc(Br)o1,-18,19,7,-0.5%,0.3,-0.2
CC(C)OCCCNC(=O)Nc1cccc2ccccc12,-3,0,.,0.0%,0.1,0.8
COc1cccc(C=Nc2cc(C)cc(C)c2)c1O,-19,1,0,1.5%,-8.1,0.7
O=C(NN1C(=O)c2ccccc2C1=O)c1ccccc1[N+](=O)[O-],-10,-1,4,1.3%,6.4,1.2
CCN1CCN(C(=O)c2cc3c(OC)c(OC)c(OC)cc3[nH]2)CC1,-14,-5,.,0.2%,-7.0,0.5
COc1ccc(/C=N\NC(=O)CCN2CCN(c3ccccc3)CC2)cc1OC,-27,?,?,4.2%,2.7,0.1
CC(COc1ccccc1)N1CCC(CO)(Cc2ccccc2)CC1 (stereo unspecified),-11,-1,-2,-0.1%,?,0.5
CCOc1ccc(CCNC(=O)COC(=O)c2ccc(S(C)(=O)=O)cc2)cc1OCC,-26,20,0,3.0%,-4.3,-0.3
Cc1cc(C)n2nc(C(=O)N/N=C/c3ccc(O)cc3)nc2n1,-3,-8,-1,1.3%,1.7,-0.1
Cc1cccc(C)c1OCc1cc(C(=O)NCC2CCCCC2)no1,-1,3,5,10%,5.7,2.4
COc1ccc(C2CCCN2C(=O)Nc2cccc(C(C)=O)c2)cc1OC (stereo unspecified),-1,5,-3,-0.1%,-0.4,0.5
O=C1C2C3C=CC(C4CC34)C2C(=O)N1c1nccs1 (stereo unspecified),-9,31,36,-0.4%,-1.2,0.9
O=C(NCc1ccccc1)C(c1ccccc1)N(C(=O)c1csnn1)c1ccccc1 (stereo unspecified),-1,-6,-9,-0.1%,2.9,0.2
CNC(C)C(=O)NC(C(=O)N1CCCC1C(=O)NNc1ccccc1)C(C)C (stereo unspecified),-10,0,.,2.8%,-3.9,0.8
O=C1C=C(NCc2ccc(Cl)cc2)CC(c2ccco2)C1 (stereo unspecified),-14,-8,0,9.5%,-0.4,0.5
O=C(NCCOCCNC(=O)OCc1ccccc1)OCc1ccccc1,-1,12,-8,-1.9%,-5.5,-0.8
CC(=O)Nc1cc(Br)ccc1O,-2,2,-1,1.1%,-6.4,-0.3
Cc1cc(C(=O)CCC(=O)Nc2ccc(S(N)(=O)=O)cc2)c(C)s1,-12,2,.,-0.2%,-3.3,-1.0
O=C(NN1C(=O)C2C3C=CC(C3)C2C1=O)c1cccc(Cl)c1 (stereo unspecified),6,-1,3,3.8%,1.0,0.4
COc1cccc(N/C=C(\C#N)c2ccc(OCCCF)cc2)c1,-20,-15,-11,3.5%,-3.3,4.5
CCOC(=O)C(C)Sc1nc2ccccc2c(=O)n1CC (stereo unspecified),-21,-1,-1,-1.5%,-4.3,2.5
# New compounds follow.
SMILES,D2 potentiator,Six1-Eya2 inh,CtBP-E1A inh,PINK1 modulator,D2 ag,TRPML1 agonist
CNC(=O)c1nnn(-c2ccccc2)c1C(=O)NC,2,22,0,-3.9%,-0.8,0.2
CCOc1ccccc1C(=O)N/N=C/c1ccoc1,-20,2,0,-0.7%,-3.6,0.0
Cn1c(N)c(C(=O)CSc2nc(C3CC3)n(-c3ccccc3)n2)c(=O)[nH]c1=O,-3,-1,0,11%,1.6,-0.7
Cc1cc(C)c(OCC(=O)Nc2ccc3c(c2)OCO3)cc1C,0,4,0,6.9%,-0.4,-0.1
Cc1ccc(C2=NNC(=O)C(c3ccc(Cl)cc3)C2)cc1 (stereo unspecified),-15,1,-13,0.9%,-2.5,2.7
COc1ccc(C2C(C(=O)NCc3ccccc3)=C(C)Nc3ncnn32)cc1OC (stereo unspecified),3,13,-4,0.5%,-1.2,-0.2
CCOc1ccc(NS(=O)(=O)c2ccc(Cl)c(C(=O)N(C)Cc3cccnc3)c2)cc1,0,-7,.,-0.1%,-0.5,-0.5
Cc1oc2c(CN3CCCC3)c(O)ccc2c(=O)c1-c1ccc(Cl)cc1,-13,5,-5,-0.2%,-2.3,-0.9
Cc1cc(C)c(S(=O)(=O)NCc2cn3c(C)csc3n2)c(C)c1,1,-1,2,-1.4%,-4.4,2.0
Nn1c(SCC(=O)NCCc2ccc(F)cc2)nnc1C1CCCCC1,-16,4,.,1.4%,-2.9,-1.1
CCOc1ccc(S(=O)(=O)N2CCC(C(=O)OC(C)C(=O)NC3CCCCC3C)CC2)cc1 (stereo unspecified),-9,3,1,-0.2%,0.8,1.1
CC1CCN(c2c(NCc3ccc(C(=O)NCCc4ccc(Cl)cc4)cc3)c(=O)c2=O)CC1,-5,12,1,0.3%,-5.9,-0.3
O=C(NCc1ccccn1)C1CCN(S(=O)(=O)c2ccccc2F)CC1,1,-1,8,1.8%,6.1,-0.3
O=C(Nc1ccc([N+](=O)[O-])cc1Cl)c1cc(Cl)ccc1O,-11,0,5,?,-3.2,2.0
COC(=O)C1=C(C)NC(C)=C(C(=O)OC)C1c1ccc(-c2cccc([N+](=O)[O-])c2)o1,-5,-2,.,5.3%,-5.5,0.2
COc1ccc2cc(CN(CC3COCCO3)S(=O)(=O)c3ccc(Cl)cc3)c(=O)[nH]c2c1 (stereo unspecified),-15,4,-2,10%,-2.1,-0.5
CC1(C)S[C@@H]2[C@H](NC(=O)[C@H](N)c3ccccc3)C(=O)N2[C@H]1C(=O)OC1OC(=O)c2ccccc21 (stereo partly specified),-16,-5,-13,2.6%,-5.4,0.6
Cc1ccc(S(=O)(=O)N2CCN(CC(=O)N/N=C/c3ccc(C)o3)CC2)cc1,-8,0,-10,-0.7%,-1.7,-0.5
CCC(CO)Nc1ccn2nc(-c3cccc(Cl)c3)cc2n1 (stereo unspecified),-2,-2,8,7.3%,-2.5,0.1
CNC(=O)CN(c1cc([N+](=O)[O-])ccc1OC)S(C)(=O)=O,5,7,7,-1.4%,1.8,1.3
COc1cc(C2NC(=O)NC(C)=C2C(=O)OC(C)(C)C)ccc1OCC(N)=O (stereo unspecified),-7,-2,1,.,-2.4,-0.2
Cc1ccccc1Cn1cc(NC(=O)c2cc(-c3cccs3)on2)cn1,-7,2,2,?,5.8,5.1
